Bioassay records from PubChem BioAssay.
T cruzi inh: T. cruzi replication inhibition. T. cruzi beta-gal in NIH3T3, luminescence, 90 h. inhibition, % (concentration not given with the values). hit rate 1.4% among 300,000. AID 1885;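 active = mean inhibition across valid replicates above about 55%, limit read from the data; inconclusive = mean below that limit but half or more replicates reach it; inactive = mean below it, under half of replicates reach it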;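 also: signal also drops with host cell toxicity which is not excluded here; 0% = plate median of DMSO wells and 100% = zero luminescence signal; higher percent means less beta-gal luminescence so fewer parasites; stock transfer was 50 nL into about 50 µL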
LANA-H2B inh: blocks KSHV LANA binding to histone H2A/H2B | AID 2629 | inhibition, % (concentration not given with the values) | hit rate 0.6% among 320,000 | Q9QR71 | cell-free LANA-H2A/H2B peptide, fluorescence polarization; in the data active = inhibition mostly above about 10%, no sharp cut-off; inactive = mostly below about 6.7%;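 also: stock transfer was 7.5 nL into about 10 µL; 0% = median of vehicle wells and 100% = median of positive control wells; one replicate is shown; the record names a cut of 25% in any replicate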
Bfl-1 A1 inh: inhibitors of the anti-apoptotic protein A1, read as caspase activation; MEF A1-2A-BIM cells, Caspase-Glo 3/7 luminescence, 3 h; percent of clofoctol response, vehicle zero; caspase activation, % (no concentration beside the values); hit rate 0.066% among 330,000;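 active = over half of replicate activation scores above 10%, or exactly half above 10 with the replicate mean above 10; inconclusive = replicate mean below 10 yet half the replicates above 10; inactive = over half of replicates below 10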;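 also: wells of about 30 µL received 50 nL stock; many hits fall short of the cut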
Calb FLC: affects C. albicans growth with fluconazole. AID 1979. C. albicans CaCi-2 (fluconazole-resistant clinical isolate) + fluconazole, Alamar Blue growth, 48 h. hit rate 0.57% among 300,000. growth inhibition, % (concentration not given with the values);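 active = most replicates above 75%; inconclusive = exactly half above 75%; inactive = most below 75%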;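 also: all wells also contain fluconazole at 8 µg/ml as a sub-toxic cotreatment; 0% = median of DMSO wells and 100% = median of geldanamycin control wells; wells of about 8 µL received 7.5 nL stock; the first replicate is given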
Beta cell apopt: blocks beta cell apoptosis | INS-1E cytokine-induced death, ATP luminescence, 48 h; percent of positive-control rescue, neutral wells zero | protection from apoptosis, % (no concentration beside the values) | hit rate 0.8% among 300,000;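 active = all replicates at 75% or more, or half of them and the mean; inconclusive = half reach 75% but not the mean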;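 also: 0% = cytokine-treated negative control wells and 100% = positive control rescue; higher means more ATP so stronger rescue from cytokine killing; wells of about 40 µL received 100 nL stock; the first replicate is given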
Beta2AR agonist: activates human beta-2 adrenergic receptor causing internalization; hit rate 0.43% among 340,000; Am2.2-beta2AR cells, FAP receptor internalization, flow cytometry; reference of the scale not given here; response, % (test concentration not listed); P07550;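 active = response above a set limit, near 3 SD of response in nonfluorescent compounds, cut at about 42% in these data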;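 also: stock transfer was 100 nL into about 11 µL; a reference agonist was the positive control; negative values mostly stem from fluorescent compounds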
Target sequence (P07550 whole entry, looked up): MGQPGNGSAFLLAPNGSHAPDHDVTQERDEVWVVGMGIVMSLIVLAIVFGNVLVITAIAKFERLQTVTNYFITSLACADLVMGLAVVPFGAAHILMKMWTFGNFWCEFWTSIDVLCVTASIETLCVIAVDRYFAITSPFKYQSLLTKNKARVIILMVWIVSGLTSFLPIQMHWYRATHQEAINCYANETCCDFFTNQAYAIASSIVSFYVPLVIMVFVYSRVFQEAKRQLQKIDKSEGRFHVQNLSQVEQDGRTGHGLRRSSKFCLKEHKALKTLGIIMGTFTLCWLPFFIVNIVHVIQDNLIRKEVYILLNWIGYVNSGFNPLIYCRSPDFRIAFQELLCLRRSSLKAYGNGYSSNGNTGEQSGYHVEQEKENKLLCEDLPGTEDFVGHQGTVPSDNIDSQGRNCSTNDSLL
RanGTP-Imp inh: inhibitors of RanGTP-importin-beta interaction, primary screen, biochemical, FRET, CFP-Ran, YFP-importin-beta, homogeneous. cell-free CFP-Ran/YFP-importin-beta FRET ratio. inhibition, % (no concentration beside the values). hit rate 1.1% among 300,000;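 active = most replicates above 15%; inconclusive = exactly half above 15%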;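 also: 0% = DMSO wells and 100% = Ran loaded with GDP instead of GTP; wells of about 40 µL received 100 nL stock; the first replicate is given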
UCH37 DUB inh: inhibitors of human deubiquitinating enzyme UCH37; Q9Y5K5; purified proteasome/UCH37, Ub-AMC cleavage fluorescence; inhibition, % (test concentration not listed); hit rate 0.33% among 330,000; AID 588478;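 active = mean of two replicates above 20%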;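 also: 0% = compound-free wells with enzyme and 100% = wells lacking proteasome; stock transfer was 100 nL into about 20 µL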
Target sequence (Q9Y5K5 whole entry, looked up): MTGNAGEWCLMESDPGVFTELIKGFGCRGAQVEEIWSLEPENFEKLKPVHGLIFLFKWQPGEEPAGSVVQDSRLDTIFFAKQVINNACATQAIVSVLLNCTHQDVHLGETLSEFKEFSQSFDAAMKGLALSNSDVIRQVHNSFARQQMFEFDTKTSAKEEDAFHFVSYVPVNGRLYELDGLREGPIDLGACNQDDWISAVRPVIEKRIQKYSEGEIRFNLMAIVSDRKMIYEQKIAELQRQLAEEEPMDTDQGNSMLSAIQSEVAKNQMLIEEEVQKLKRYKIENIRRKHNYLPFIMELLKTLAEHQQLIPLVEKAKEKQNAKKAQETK
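Test system – human UCH37 enzyme supplied as purified proteasome complex · Incubation – 30 min preincubation with enzyme, 25 min cleavage at room temperature · Detection – AMC fluorescence from Ub-AMC cleavage, excitation 355 nm, emission 460 nm · Benchmarks – no-proteasome wells (full inhibition) and compound-free wells (no inhibition)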
Numbers without * were called inactive; ? = inconclusive; · = no result given; & = joins results of further samples.

The line under a structure holds: LANA-H2B inh	Bfl-1 A1 inh	RanGTP-Imp inh	Calb FLC	UCH37 DUB inh	Beta cell apopt	Beta2AR agonist	T cruzi inh
O=C(NNC(=O)c1ccc(Cl)cc1Cl)c1cnccn1
    1.3	-0.3	1.2	0.6	2.6	-0.5	-4.8	-3.1
C/C(=N\NC(=O)CSCc1ccc(Cl)cc1)c1ccc2c(c1)OCCO2
    4.6	0.0	-0.2	-2.2	·	-0.7	18.8	-0.4
CC(=O)Nc1ccc(S(=O)(=O)NCC(=O)OCC(=O)NNC(=O)c2ccccc2)cc1
    0.5	-0.2	·	·	2.3	-1.5	4.5	·
C=CCn1c(COc2ccccc2)nnc1SCC(=O)O
    5.5	0.5	-4.0	-10.1	5.6	7.8	4.7	-7.7
COc1ccc(C(=O)NCCS(=O)(=O)NCc2ccccc2)cc1
    3.7	0.5	-0.6	-3.4	6.9	·	-1.8	-5.0
CCOCCCNC(=O)Cc1ccc(OC)c(OC)c1
    -0.7	0.2	-4.6	4.9	0.2	1.4	-3.5	-13.5
COC(=O)c1ccc(COc2ccc(-c3nn[nH]n3)cc2)cc1
    -2.7	-0.4	8.4	5.3	-0.6	-1.3	13.6	2.5
CC1(C)Cc2ccccc2-c2nnc(-c3ccc(O)cc3)n21
    -1.3	0.0	3.1	8.5	2.5	-6.3	-4.2	8.4
COC(=O)c1ccccc1NC(=O)CSc1n[nH]c(-c2ccncc2)n1
    -4.6	0.5	·	·	3.2	-3.6	-0.9	-1.1
COCCCNC(=O)/C=C/c1ccc(Cl)cc1
    5.5	-0.9	-1.4	-6.2	0.6	-10.9	2.9	7.5
Cn1nnnc1SCCNCc1ccccc1OCc1ccc(Cl)cc1
    1.4	0.0	5.3	1.9	3.6	-3.7	1.1	-4.5
Cc1ccc(C)c(NC(=O)COC(=O)CNC(=O)c2ccccc2Cl)c1
    0.5	0.6	-2.3	4.3	2.4	-3.8	1.3	-18.2
COc1cc(/C=C2\C(=O)ON=C2c2ccccc2)cc(Br)c1O
    -0.3	1.0	0.0	-1.4	1.9	-4.5	-34.4	2.3
CCOC(=O)CSc1ncnc2c1sc1nc(N3CCOCC3)c3c(c12)CCCC3
    5.0	-0.2	2.8	8.1	-23.1	1.0	-3.4	0.8
Cc1ccc(C(C)NC(=O)Cc2cccs2)cc1C (configuration not stated)
    4.5	0.8	0.8	1.4	2.8	-0.4	3.4	-9.5
O=C(O)C[C@H]1c2cc(F)ccc2S(=O)(=O)N1C1CCCC1
    -4.2	-0.1	0.9	0.8	2.6	-2.9	-5.0	-8.7
CCN(CC)C(=O)CN1C(=O)C2(OCC(C)(C)CO2)c2ccccc21
    -4.3	-1.2	·	·	0.1	0.0	0.1	·
COc1ccc(COc2cc(-c3cccc(OC)c3)nc3ccc(NC(=O)c4ccc(N(C)C)cc4)cc23)cc1
    0.2	-0.6	2.8	-6.9	-18.6	2.7	2.7	6.2
CC1=C(C(N)=O)C(c2ccc(C)o2)C(C(N)=O)=C(C)N1
    1.1	0.2	3.6	70.8*	4.3	-1.1	-6.2	-4.5
CCN(c1ccccc1)S(=O)(=O)c1cc(C(=O)Nc2ccc(F)c(F)c2)ccc1F
    0.0	-0.1	-1.2	10.2	4.6	-10.5	16.5	6.8

Further records follow:
The line under a structure holds: LANA-H2B inh	Bfl-1 A1 inh	RanGTP-Imp inh	Calb FLC	UCH37 DUB inh	Beta cell apopt	Beta2AR agonist	T cruzi inh
COc1ccc(S(=O)(=O)c2cnc3ccccc3n2)cc1
    -7.6	0.1	-2.2	-2.4	3.9	1.7	-1.1	-19.7
CCSc1nnc(CCNC(=O)OC(C)(C)C)o1
    -0.7	0.2	-0.6	?	0.4	-4.0	4.6	1.3
Cc1cc(-c2n[nH]c(=S)o2)c(C)n1-c1ccccc1
    -1.1	-0.8	0.3	7.1	-0.7	-6.8	·	-2.8
O=C(CCCN1C(=O)C(c2ccccc2)Oc2cccnc21)Nc1ccccc1Cl (configuration not stated)
    7.8	1.5	-2.7	-19.8	-1.0	5.8	-1.5	2.0
O=C(NCC(=O)N1CCN(c2ccccc2)CC1)c1ccco1
    1.5	0.6	-4.7	-4.8	-0.5	-4.6	-3.0	-17.7
Oc1ccc(Cl)cc1C=Nc1ccc(Br)cc1
    6.5	0.4	-1.0	-10.9	0.6	-3.6	17.9	-7.3
C[C@]12CCC(=O)C[C@@H]1CC[C@@H]1[C@@H]2CC[C@]2(C)[C@@H](C(=O)COC(=O)CCC(=O)O)CC[C@@H]12
    -4.0&4.6	-0.6&2.4	4.8&0.3	9.1&15.4	2.7&0.2	-1.4&1.3	1.3&6.2	-15.2&7.3
COc1ccc(CCNC(=O)c2c(C)nn(-c3ccccc3)c2Cl)cc1
    3.7	-0.7	-1.1	8.1	0.7	-1.5	-3.4	31.3
O=C(CCN1CCN(c2ccccc2)CC1)N/N=C/c1ccccc1O
    -2.8	0.2	-1.7	37.3	·	30.1	0.2	6.8
CCOC(=O)c1c(-c2ccc(C)cc2)csc1NC(=O)CCN1CCOCC1
    2.1	-0.3	3.9	34.1	5.2	-6.2	-0.4	-11.7
CCOc1ccc(NC(=O)NC2CC(=O)N(c3ccc(OC)cc3)C2)cc1 (configuration not stated)
    1.7	-0.3	0.6	-4.5	-0.3	-2.2	-3.6	-0.9
Cc1ccccc1-c1cc(C(=O)Nc2sc(C(=O)OC(C)C)c(C)c2C#N)c2ccccc2n1
    -3.3	-0.6	3.7	38.2	0.0	51.8	14.8	-4.3
NC(=O)C(Cc1ccccc1)NC(=O)C12CC3CC(CC(C3)C1)C2 (configuration not stated)
    -4.5	-0.7	0.8	-5.4	4.5	0.2	-8.0	-3.7
O=C(CN1C(=O)NC2(CCc3ccccc32)C1=O)Nc1ccc(N2CCOCC2)cc1 (configuration not stated)
    -1.4	-0.3	-0.6	-11.9	1.7	-2.4	5.2	-5.3
Cc1ccc(C)c(OCCC(=O)OCC(=O)NCc2ccc(F)cc2)c1
    -3.1	-0.5	2.8	11.2	0.8	-3.2	1.2	-3.4
COc1ccc(NC(=O)NC2(C(=O)N3CCN(C)CC3)CCCCC2)cc1
    -2.7	-1.2	3.9	-2.7	2.3	3.8	2.0	-11.6
Cc1ccc(OCC(=O)N2CCc3ccccc32)c([N+](=O)[O-])n1
    -2.4	-3.5	-3.0	3.8	-0.3	-8.8	4.6	8.4
O=C(COC(=O)CNS(=O)(=O)/C=C/c1ccccc1)NC1CCS(=O)(=O)C1 (configuration not stated)
    0.6	0.2	2.2	-7.7	5.0	-7.2	-0.6	-10.0
O=C(CSc1nc(-c2ccco2)cc(C(F)(F)F)n1)N1CCc2ccccc2C1
    0.7	0.5	-3.7	5.3	-2.8	-3.5	-5.6	21.9
O=C(NC(=S)NC(CO)Cc1ccccc1)c1ccc(F)cc1 (configuration not stated)
    -9.6	0.4	?	-9.4	4.5	-2.2	3.6	-14.2

More results follow.
The line under a structure holds: LANA-H2B inh	Bfl-1 A1 inh	RanGTP-Imp inh	Calb FLC	UCH37 DUB inh	Beta cell apopt	Beta2AR agonist	T cruzi inh
C[C@H](CO)N1C[C@H](C)[C@@H](CN(C)S(=O)(=O)c2ccc(F)cc2)Oc2ccc(NC(=O)CCN3CCOCC3)cc2C1=O
    5.1	2.5	·	·	3.0	-1.4	-3.0	·
Nc1ccc(C(=O)C(=O)c2ccc(N)cc2)cc1
    4.5	0.2	-2.1	-1.5	·	-5.1	11.0	-3.4
Cc1ccc(S(=O)(=O)C(C#N)=C2N(C)c3ccccc3N2C)cc1
    -0.7	1.8	-2.8	-13.0	3.7	-5.2	-9.7	-12.9
C/C(CCc1ccc2c(c1)OCO2)=N\NC(=O)c1ccccc1Br
    2.9	0.8	0.9	-3.8	·	0.4	-6.3	0.3
O=C(COc1ccccc1Cl)Nc1ccccc1C(=O)NC1CC1
    -1.8	0.0	7.8	10.1	3.1	2.5	-7.0	-5.5
CCOC(=O)C1=C(C)NC(=O)C1CC(=O)Nc1ccccc1 (configuration not stated)
    0.9	0.2	0.4	0.4	·	-10.0	·	16.4
COc1ccc(OC)c(C(C[N+](=O)[O-])c2c(C)cc3ccccn23)c1 (configuration not stated)
    2.3	-0.6	-1.6	12.4	-0.3	1.3	6.5	14.5
COc1ccc(C)cc1S(=O)(=O)N1CCC2(CC1)OCCN2S(=O)(=O)c1ccccc1
    -1.4	-0.1	-1.6	-2.9	1.8	·	3.9	17.4
NS(=O)(=O)c1ccc(CCNC(=O)CN2CCN(S(=O)(=O)c3ccccc3F)CC2)cc1
    4.2	3.4	·	·	4.7	-3.5	·	·
CCn1c(SCC(=O)N2CCCCC2C)nnc1-c1ccco1 (configuration not stated)
    12.4	1.0	0.6	0.2	-0.3	-1.2	-5.3	-4.8
Cc1ccc(NC2Sc3ccccc3NC2=O)cc1 (configuration not stated)
    7.6	-5.2	-0.2	-5.3	2.4	7.0	-8.7	-18.0
O=[N+]([O-])c1cccc(/C=C/c2nc(C=Nc3ccc4ccccc4c3)c(O)o2)c1
    0.3	0.0	·	·	3.3	-2.6	-17.8	·
NC(=O)[C@@H]1CCCN1C(=O)c1cc(COc2ccc3c(c2)CCCC3)on1
    0.3	0.8	-0.8	-18.9	-0.1	-1.8	0.0	-2.6
O=C(CN(Cc1ccccc1)C1=NCCS1)c1ccccc1
    ·	-0.5	-5.2	-17.6	0.4	6.5	-2.4	-1.9
CCS(=O)(=O)c1ncc(Cl)c(C(=O)Nc2ccccc2OC)n1
    -1.6	?	1.1	11.0	·	84.2*	22.8	-18.7
CC1CCN(C(=O)CSc2nc(=O)n3cc(Cl)ccc3n2)CC1
    -7.1	0.5	-1.4	-3.7	4.8	-3.7	-2.2	-7.8
CCCCCC1CC1C(=O)N/N=C/c1ccc(N(C)C)cc1 (configuration not stated)
    3.0	0.3	-4.1	-27.9	·	-7.2	-0.7	0.1
O=c1cc(Cl)c2ccccc2n1-c1ccccc1
    -2.3	1.7	-1.6	28.3	0.3	-1.4	17.1	-5.9
CCC(C)NC(=O)COC(=O)c1oc2ccccc2c1CSc1ccc(Cl)cc1 (configuration not stated)
    2.4	0.4	-4.2	-5.7	4.6	0.7	5.7	-2.4
Cn1c(Cc2c[nH]c3ccccc23)n[nH]c1=S
    0.1	0.3	-2.7	-2.6	0.9	-1.9	0.4	-1.7

Remaining list, next part
The line under a structure holds: LANA-H2B inh	Bfl-1 A1 inh	RanGTP-Imp inh	Calb FLC	UCH37 DUB inh	Beta cell apopt	Beta2AR agonist	T cruzi inh
COc1ccc(C(C)(C)C)cc1NC(=O)COC(=O)c1cc(SC)ccc1Cl
    -5.5	0.1	-1.1	4.9	0.0	6.3	-1.1	17.0
Cc1cccc(C(=O)OC(C)C(=O)NC(=O)NC2CCCCC2)c1O (configuration not stated)
    -2.3	0.8	2.5	0.6	0.2	0.6	-5.0	-6.2
COc1ccc(OC)c(NC(=O)c2cc3c(cc2Cl)N2CCCCCC2=NS3(=O)=O)c1
    -3.6	0.2	·	·	4.1	1.7	0.6	·
O=C(Nc1nccs1)c1cc(-c2ccco2)nc2ccccc12
    3.9	0.2	7.0	3.2	-33.6	-0.9	-2.2	-11.2
COc1ccc(/C(O)=C2\C(=O)C(=O)N(c3cc(C)on3)C2c2ccc(OC)c(OC)c2)cc1OC (configuration not stated)
    -7.5	0.5	8.3	-2.5	11.8	-6.0	6.1	-3.7
